Env fusion inh – HIV envelope-mediated fusion inhibition; 360,000 compounds, 1.1% hits; HeLa-JRFL Env/CEM21 cell fusion, luciferase; inhibition, % at 12.3 µM; AID 651610;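 active means mean replicate inhibition score of at least 50 and every replicate individually at or above 50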;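 further: 0% = plate neutral controls and 100% = maraviroc near 300 nM; one replicate is shown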
The depositor's hits bear a star; [ ] = dose if it differs, or a comment. These rows are one share of the data (hit frequency here may not be typical).

SMILES | Env fusion inh
C[C@H]1CCCCO[C@H](CN(C)CC2CC2)[C@@H](C)CN([C@@H](C)CO)C(=O)c2cc(NC(=O)Nc3ccccc3)ccc2O1 | -18.4[16.7 µM]
NC1=NC2(CS1)CSC(N)=N2 | -29.8
CO[C@@H]1CN(C)C(=O)c2ccc(NC(=O)CN(C)C)cc2OC[C@@H](C)N(C(=O)c2ccncc2)C[C@H]1C | 0.7[16.7 µM]
C[C@@H]1CCCCO[C@H](CN(C)Cc2ccncc2)[C@H](C)CN([C@H](C)CO)C(=O)c2cc(NS(C)(=O)=O)ccc2O1 | -22.5[16.7 µM]
COc1cccc(C(=O)Nc2ccc3c(c2)C(=O)N(C)C[C@H](OC)[C@H](C)CN[C@H](C)CO3)c1 | -4.5[16.7 µM]
COc1ccccc1NC(=O)Nc1ccc2c(c1)C(=O)N(C)C[C@H](OC)[C@@H](C)CN[C@@H](C)CO2 | 3.0[16.7 µM]
CCCC(=O)Nc1ccc2c(c1)C(=O)N(C)C[C@H](OC)[C@@H](C)CN(Cc1nccs1)[C@@H](C)CO2 | -12.9[16.7 µM]
CO[C@H]1CC[C@H]2CCN(C)C(=O)C[C@@H](c3ccccc3)CN(C)C(=O)c3cc(C#N)ccc3OC[C@@H]1O2 | 3.2[16.7 µM]
COc1ccccc1NC(=O)Nc1ccc2c(c1)C(=O)N(C)C[C@@H](OC)[C@@H](C)CN[C@@H](C)CO2 | -3.9[16.7 µM]
Cc1ccc2nc(-c3ccco3)c(Cc3ccccc3C(F)(F)F)n2c1 | 14.6
O=C(C[C@H]1CC[C@@H]2[C@H](COC[C@H](O)CN2C(=O)c2ccc3c(c2)OCO3)O1)NCCN1CCCCC1 | -5.5[16.7 µM]
Cc1ccccc1S(=O)(=O)N1C[C@H](O)COC[C@H]2O[C@H](CC(=O)NCCc3ccccc3)CC[C@@H]21 | -11.6[16.7 µM]
CC(C)(C)[S@](=O)N1Cc2cc(C(=O)N[C@@H]3CCN(Cc4ccccc4)C3)nc(-c3cccc(-c4cccnc4)c3)c2[C@@H]1CCO | -1.8[16.7 µM]
Nc1[nH]c(C(=O)c2ccccc2)c(-c2ccccc2Br)c1C(=O)c1cccs1 | -5.8
CN1C(=O)c2cc(NC(=O)C3CCOCC3)ccc2OC[C@H]2O[C@H](CC(=O)NCC3CCCCC3)CC[C@H]21 | 10.3[16.7 µM]
C[C@H](CO)N1C[C@H](C)[C@@H](CN(C)S(=O)(=O)CC(F)(F)F)OCc2ccccc2-c2c(n(C)c3ccccc23)C1=O | 4.7[16.7 µM]
C[C@H](NC(=O)C[C@@H]1C[C@@H]2c3cc(NC(=O)Cc4ccncc4)ccc3O[C@@H]2[C@H](CO)O1)c1ccccc1 | -5.8[16.7 µM]
CO[C@@H]1CN(C)C(=O)c2cc(NC(=O)c3nc4ccccc4s3)ccc2OC[C@H](C)N(Cc2cncnc2)C[C@@H]1C | 17.5[16.7 µM]
COc1ccccc1NC(=O)N1C[C@@H](C)[C@H](OC)CN(C)C(=O)c2ccc(NC(=O)c3cnccn3)cc2OC[C@H]1C | 12.7[16.7 µM]
CO[C@@H]1CC[C@@H]2CCN(C)C(=O)C[C@H](c3ccccc3)CN(C)C(=O)c3cc(C#N)ccc3OC[C@@H]1O2 | -0.4[16.7 µM]
CC(C)C1CC(N(C)C)=CC(=S)N1 (stereo unspecified) | 58.3*
COc1ccc(CN(C)C[C@H]2Oc3ccc(NS(=O)(=O)c4cccs4)cc3C(=O)N([C@H](C)CO)C[C@H]2C)cc1 | -16.1[16.7 µM]
C[C@H](CO)N1C[C@H](C)[C@@H](CN(C)C)Oc2cc(C3=CCCCC3)ccc2S1(=O)=O | 15.9[16.7 µM]
COc1ccc(NC(=O)Nc2ccc3c(c2)[C@@H]2C[C@H](CC(=O)NCc4ccccn4)O[C@@H](CO)[C@@H]2O3)cc1 | 8.4[16.7 µM]
CO[C@H]1CN(C)C(=O)c2cc(NC(=O)Nc3cc(F)ccc3F)ccc2OC[C@H](C)NC[C@@H]1C | 4.8[16.7 µM]

Entries listed above printed as active in Env fusion inh.
SMILES | Env fusion inh
CC(C)C1CC(N(C)C)=CC(=S)N1 (stereo unspecified) | 58.3*

Given with tabs: part of the list above.
structure	Env fusion inh
CO[C@H]1CC[C@H]2CCN(C)C(=O)C[C@@H](c3ccccc3)CN(C)C(=O)c3cc(C#N)ccc3OC[C@@H]1O2	3.2[16.7 µM]
Cc1ccccc1S(=O)(=O)N1C[C@H](O)COC[C@H]2O[C@H](CC(=O)NCCc3ccccc3)CC[C@@H]21	-11.6[16.7 µM]

In a second layout: entries from further up.
| SMILES | Env fusion inh |
| --- | --- |
| CO[C@@H]1CN(C)C(=O)c2cc(NC(=O)c3nc4ccccc4s3)ccc2OC[C@H](C)N(Cc2cncnc2)C[C@@H]1C | 17.5[16.7 µM] |
| COc1ccccc1NC(=O)N1C[C@@H](C)[C@H](OC)CN(C)C(=O)c2ccc(NC(=O)c3cnccn3)cc2OC[C@H]1C | 12.7[16.7 µM] |
| CO[C@@H]1CC[C@@H]2CCN(C)C(=O)C[C@H](c3ccccc3)CN(C)C(=O)c3cc(C#N)ccc3OC[C@@H]1O2 | -0.4[16.7 µM] |
| CC(C)C1CC(N(C)C)=CC(=S)N1 (stereo unspecified) | 58.3* |

Next part.
SMILES | Env fusion inh
COc1ccc(-c2cc(NC(=O)Cc3c[nH]c4ccccc34)ccc2Nc2cccnc2)c(OC)c1 | -7.2
COC(=O)C1=C(C)NC(=S)NC1c1ccc(Br)cc1 (stereo unspecified) | 0.7
C[C@@H]1CN([C@H](C)CO)C(=O)c2cc(C#CC3CC3)cnc2O[C@H]1CN(C)C(=O)C1CCCCC1 | 17.5[16.7 µM]
COCC(=O)N1C[C@H](C)[C@@H](OC)CN(C)C(=O)c2ccc(NC(=O)c3ccc(OC)cc3)cc2OC[C@H]1C | -8.2[16.7 µM]
CN(C)CCCNC(=O)[C@H]1[C@H](CO)[C@H]2Cn3c(cccc3=O)[C@@H]1N2CC1CC1 | -1.8[16.7 µM]
CO[C@@H]1CC[C@H]2CCOc3ccc(C#N)cc3C(=O)N(C)C[C@H](C)C(=O)N(C)C[C@@H]1O2 | -6.8[16.7 µM]
C[C@H]1CN([C@@H](C)CO)C(=O)CCCn2cc(nn2)CO[C@@H]1CN(C)Cc1ccc2c(c1)OCCO2 | 6.6[16.7 µM]
CCCNC(=O)C[C@H]1CC[C@H]2[C@@H](COC[C@H](O)CN2C(=O)c2cccnc2)O1 | 14.7[16.7 µM]
CCCNC(=O)Nc1ccc2c(c1)C(=O)N(C)C[C@@H](OC)[C@H](C)CN(Cc1ccccn1)[C@@H](C)CO2 | -5.4[16.7 µM]
O=C(C[C@H]1CC[C@H]2[C@@H](COC[C@H](O)CN2Cc2cc(F)ccc2F)O1)N[C@@H]1CCN(Cc2ccccc2)C1 | -21.4[16.7 µM]
CN(C)c1ccc2c(c1)[C@@H]1C[C@@H](CC(=O)NCc3ccncc3)O[C@H](CO)[C@@H]1O2 | 6.2[16.7 µM]
CO[C@H]1CC[C@H]2CCN(C)C(=O)[C@H](C)[C@@H](OC)CN(C)C(=O)c3cccc(C#N)c3OC[C@H]1O2 | -10.9[16.7 µM]
COc1ccc(S(=O)(=O)N(C)C[C@@H]2Oc3c(NC(=O)Nc4ccccc4)cccc3C(=O)N([C@H](C)CO)C[C@H]2C)cc1 | -18.9[16.7 µM]
CO[C@@H]1CN(C)C(=O)c2ccc(NS(=O)(=O)c3cccc(F)c3)cc2OC[C@H](C)N(C(=O)Cc2cccnc2)C[C@H]1C | -4.0[16.7 µM]
COc1ccc(CNC(=O)[C@@H](Cc2ccccc2)NC(=O)[C@H]2O[C@@H](n3cnc4c(=O)[nH]c(N)nc43)[C@H](O)[C@@H]2O)cc1 | -3.6
C[C@@H]1CN([C@@H](C)CO)C(=O)c2cc(-c3cncnc3)cnc2O[C@@H]1CN(C)Cc1ccc(Oc2ccccc2)cc1 | -2.8[16.7 µM]
Cc1noc(C)c1NC(=O)Nc1cccc2c1O[C@@H](CN(C)C(=O)Nc1ccc(F)cc1)[C@H](C)CN([C@H](C)CO)C2=O | 37.4[16.7 µM]
CO[C@@H]1CN(C)C(=O)c2cc(NC(=O)c3ccccc3)ccc2OC[C@@H](C)N(CC2CC2)C[C@@H]1C | -6.6[16.7 µM]
COc1cccc(CNC(=O)C[C@@H]2CC[C@@H]3[C@@H](COc4ccc(NS(=O)(=O)c5ccccc5F)cc4C(=O)N3C)O2)c1 | -16.2[16.7 µM]
C[C@@H]1CN([C@@H](C)CO)C(=O)c2ccccc2-c2ccccc2CO[C@@H]1CN(C)S(=O)(=O)c1ccccc1F | -2.3[16.7 µM]
COC(=O)[C@@H](N[C@H](/C=C/c1ccccc1)[C@@H](O)Cc1ccccc1)C(C)C | 11.9
C[C@H](CO)N1C[C@H](C)[C@H](CN(C)Cc2ccc(C(F)(F)F)cc2)Oc2ccc(NC(=O)Cn3cnnn3)cc2C1=O | 7.8[16.7 µM]
C[C@H]1CN([C@@H](C)CO)S(=O)(=O)c2ccc(C3=CCCC3)cc2O[C@@H]1CN(C)S(C)(=O)=O | 11.4[16.7 µM]
CCCNC(=O)C[C@@H]1C[C@H]2c3cc(NC(=O)COC)ccc3O[C@H]2[C@H](CO)O1 | 6.7[16.7 µM]
C[C@H](CO)N1C[C@H](C)[C@H](CN(C)S(=O)(=O)c2ccccc2)Oc2c(NC(=O)c3cnccn3)cccc2C1=O | -9.1[16.7 µM]

Continuation.
SMILES | Env fusion inh
Nc1ccn([C@@H]2O[C@H](C(=O)N[C@H](Cc3ccccc3)C(=O)N3CCN(C(=O)N4CCCCC4)CC3)[C@@H](O)[C@H]2O)c(=O)n1 | -9.8
C[C@@H]1CN([C@@H](C)CO)C(=O)Cc2cc(NC(=O)c3ccncc3)ccc2O[C@H]1CN(C)Cc1ccc(C(F)(F)F)cc1 | 36.6[16.7 µM]
COC(=O)C[C@@H]1C[C@H]2c3cc(NC(=O)c4ccc5c(c4)OCO5)ccc3O[C@H]2[C@H](CO)O1 | -11.6[16.7 µM]
Cc1ccc(S(=O)(=O)Nc2ccc3c(c2)C(=O)N([C@H](C)CO)C[C@H](C)[C@H](CN(C)Cc2ccccc2)O3)cc1 | -10.5[16.7 µM]
C[C@@H]1CCn2cc(nn2)COC[C@@H](c2ccccc2)NC1=O | 15.3[16.7 µM]
CC(C)NC(=O)Nc1ccc2c(c1)C(=O)N([C@H](C)CO)C[C@H](C)[C@H](CN(C)C(=O)c1ccncc1)OCCCC[C@H](C)O2 | 17.0[16.7 µM]
Cc1ccc(-c2ccc3c(c2)O[C@H](CN(C)C(=O)C2CCCCC2)[C@@H](C)CN([C@H](C)CO)S3(=O)=O)cc1 | -0.6[16.7 µM]
C=CCC12C[C@@]3(O[C@H](c4ccc(C(F)(F)F)cc4)N=C3C[C@H](c3ccc(OC)cc3)[C@H]1C)N(Cc1ccc3c(c1)OCO3)C2=O | 14.8
C[C@H](CO)N1C[C@H](C)[C@H](CN(C)C(=O)Nc2ccc3c(c2)OCO3)Oc2ccc(NC(=O)CCCN(C)C)cc2C1=O | -5.0[16.7 µM]
C[C@@H]1CN([C@H](C)CO)C(=O)c2cc(NC(=O)CCCN(C)C)ccc2O[C@@H]1CN(C)C(=O)Nc1ccc2c(c1)OCO2 | -16.4[16.7 µM]
C[C@@H]1COc2cccc(NC3CC3)c2S(=O)(=O)N1 | -3.3
C[C@@H]1CN([C@H](C)CO)C(=O)c2c(c3ccccc3n2C)-c2ccccc2CO[C@@H]1CN(C)C(=O)N[C@H](C)c1ccccc1 | -31.2[16.7 µM]
O=C(C[C@H]1C[C@H]2c3cc(NC(=O)c4cccnc4)ccc3O[C@H]2[C@@H](CO)O1)NCCN1CCCCC1 | -4.1[16.7 µM]
CCc1csc(N2[C@H](C#N)[C@H](c3ccccc3C3=CCCC3)[C@H]2CO)n1 | 10.1[16.7 µM]
C[C@@H]1CCCCO[C@H](CN(C)S(C)(=O)=O)[C@@H](C)CN([C@H](C)CO)C(=O)c2cc(NC(=O)CCCN(C)C)ccc2O1 | -2.8[16.7 µM]
COC(=O)C[C@@H]1CC[C@H]2[C@@H](COc3ccc(NC(=O)c4ccccc4F)cc3C(=O)N2C)O1 | 14.4[16.7 µM]
O=C(Cc1ccncc1)Nc1ccc2c(c1)[C@@H]1C[C@@H](CC(=O)N3CCc4ccccc4C3)O[C@@H](CO)[C@@H]1O2 | -1.9[16.7 µM]
COc1cccc(S(=O)(=O)Nc2ccc3c(c2)[C@@H]2C[C@@H](CC(=O)NC4CCCCC4)O[C@@H](CO)[C@@H]2O3)c1 | -27.3[16.7 µM]
COc1cccc(CNC(=O)C[C@@H]2CC[C@@H](NC(C)=O)[C@@H](CO)O2)c1 | 18.5[16.7 µM]
C[C@H]1CN([C@@H](C)CO)C(=O)c2cc(NS(C)(=O)=O)ccc2O[C@H]1CN(C)Cc1ccc2c(c1)OCO2 | 1.5[16.7 µM]
COc1ccc2c3c(n(C)c2c1)[C@H](CO)N(S(=O)(=O)c1ccccc1)CC31CCN(C)CC1 | 3.8[16.7 µM]
C[C@@H]1CN([C@H](C)CO)C(=O)c2cc(C3=CCCC3)cnc2O[C@@H]1CN(C)C(=O)C1CC1 | -2.9[16.7 µM]
C[C@H](CO)N1C[C@H](C)[C@@H](CN(C)S(=O)(=O)c2ccc(F)cc2)Oc2ccc(NC(=O)Nc3ccc(C(F)(F)F)cc3)cc2CC1=O | 101.4*[16.7 µM]
O=C(C[C@H]1CC[C@H](NC(=O)CCN2CCCCC2)[C@H](CO)O1)Nc1nccs1 | 10.0[16.7 µM]
C[C@@H]1CN([C@H](C)CO)C(=O)c2cc(C#Cc3ccccc3F)cnc2O[C@@H]1CN(C)C(=O)C1CCCCC1 | 15.4[16.7 µM]
CC(C)(C)C(=O)c1c(N)[nH]c(C(=O)c2ccccc2)c1-c1ccc([N+](=O)[O-])cc1 | 8.2
O=C(C[C@H]1C=C[C@@H](NC(=O)c2cccc(F)c2)[C@@H](CO)O1)Nc1nccs1 | 7.4[16.7 µM]
O=C(CCN1CCCCC1)N[C@@H]1CC[C@H](CC(=O)N2CCC(Cc3ccccc3)CC2)O[C@@H]1CO | -4.3[16.7 µM]
COc1ccc2c3c([nH]c2c1)[C@H](CO)N(C(=O)Nc1ccc(F)cc1)CC31CN(CC2CCOCC2)C1 | -7.2[16.7 µM]
C[C@@H]1CN([C@H](C)CO)S(=O)(=O)c2ccc(C3=CCCC3)cc2O[C@H]1CN(C)C(=O)c1ccc(F)cc1 | 1.3[16.7 µM]

Assay outcomes deposited in PubChem BioAssay by Broad Institute.
